A1 inh: inhibitors of the anti-apoptotic protein A1, read as caspase activation; caspase activation, % (concentration not given with the values); MEF A1-2A-BIM cells, Caspase-Glo 3/7 luminescence, 3 h; percent of clofoctol response, vehicle zero; 330,000 compounds, 0.066% hits; AID 2462;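 active means over half of replicate activation scores above 10%, or exactly half above 10 with the replicate mean above 10; inconclusive means replicate mean below 10 yet half the replicates above 10; inactive means over half of replicates below 10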;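 further: wells of about 30 µL received 50 nL stock; many hits fall short of the cut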
Beta cell apopt: beta cell apoptosis inhibition | INS-1E cytokine-induced death, ATP luminescence, 48 h; percent of positive-control rescue, neutral wells zero | protection from apoptosis, % (test concentration not listed) | 300,000 compounds, 0.8% hits | AID 435005;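 active means all replicates at 75% or more, or half of them and the mean; inconclusive means half reach 75% but not the mean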;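 further: 0% = cytokine-treated negative control wells and 100% = positive control rescue; higher means more ATP so stronger rescue from cytokine killing; wells of about 40 µL received 100 nL stock; the first replicate is given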
Calb FLC: C. albicans growth modulation with fluconazole; C. albicans CaCi-2 (fluconazole-resistant clinical isolate) + fluconazole, Alamar Blue growth, 48 h; growth inhibition, % (no concentration beside the values); 300,000 compounds, 0.57% hits; AID 1979;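 active means most replicates above 75%; inconclusive means exactly half above 75%; inactive means most below 75%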;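 further: all wells also contain fluconazole at 8 µg/ml as a sub-toxic cotreatment; 0% = median of DMSO wells and 100% = median of geldanamycin control wells; wells of about 8 µL received 7.5 nL stock; the first replicate is given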
Vif A3G: HIV-1 Vif–A3G interaction blockers – biochemical, TR-FRET, GST-Vif 1-94, biotin-A3G peptide, dose response retest, primary screen (AID 1117319); TR-FRET GST-Vif / biotin-A3G peptide binding; higher % means a stronger effect; test concentration not given here; strong numbers were not always called active; inhibition, %, or IC50 in µM where a hit was titrated; 260,000 compounds, 0.57% hits;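 active means above the screen mean plus three standard deviations and confirmed in dose response; inconclusive means results disagree or hit not tested in dose response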;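 further: Vif residues 1-94 fused to GST binding biotinylated APOBEC3G peptide 110-148; 0% = full assay without inhibitor and 100% = GST in place of GST-Vif; retest series ran down from 100 µM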
MLL AF4-AF9 inh: inhibitors of human MLL-AF4/AF9 interaction. P42568. AlphaScreen, biotin-AF4 peptide binding to FLAG-AF9. 350,000 compounds, 0.47% hits. inhibition, % at 10 µM;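 active means every replicate reaching a set inhibition limit, whatever the replicate mean, cut at about 25% in these data; inconclusive means mean inhibition reaches that limit but some replicates miss it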;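 further: 0% = plate neutral control median and 100% = total signal loss; the record names both 10 and 1 µM as test concentration; the first replicate is given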
Target sequence (P42568 whole entry, looked up): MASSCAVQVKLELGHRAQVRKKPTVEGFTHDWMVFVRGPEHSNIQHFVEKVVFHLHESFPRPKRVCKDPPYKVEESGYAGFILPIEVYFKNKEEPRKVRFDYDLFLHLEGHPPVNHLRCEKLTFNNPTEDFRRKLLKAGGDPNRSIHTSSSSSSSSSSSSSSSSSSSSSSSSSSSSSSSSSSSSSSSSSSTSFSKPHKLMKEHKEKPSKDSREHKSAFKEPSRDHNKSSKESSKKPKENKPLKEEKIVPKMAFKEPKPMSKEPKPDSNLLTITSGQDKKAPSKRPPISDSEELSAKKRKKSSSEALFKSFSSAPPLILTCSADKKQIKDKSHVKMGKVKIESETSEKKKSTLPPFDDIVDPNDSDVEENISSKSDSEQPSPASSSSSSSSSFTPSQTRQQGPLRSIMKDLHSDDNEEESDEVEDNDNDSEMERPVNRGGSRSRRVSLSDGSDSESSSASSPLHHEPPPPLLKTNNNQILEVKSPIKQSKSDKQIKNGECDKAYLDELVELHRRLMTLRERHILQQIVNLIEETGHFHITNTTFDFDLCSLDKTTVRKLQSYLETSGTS
Ecoli rRNA inh: inhibits bacterial ribosomal RNA function over humanized ribosomes; GFP signal change (wild-type ribosome), % (no concentration beside the values); 350,000 compounds, 1.6% hits; E. coli WT GFP vs humanized-ribosome RFP mutants, fluorescence, 24 h; stronger effect = lower value; DMSO median 0, no signal -100; AID 720706;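 active means significant combined selectivity score with lowered wild-type GFP, culture density cut under 30%, mutant RFP and density less affected; inactive means any of these conditions unmet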; further: one replicate is shown; some compounds called inactive have numbers as strong as hits
RanGTP-Impb inh: inhibitors of RanGTP-importin-beta interaction, primary screen, biochemical, FRET, CFP-Ran, YFP-importin-beta, homogeneous | cell-free CFP-Ran/YFP-importin-beta FRET ratio | inhibition, % (concentration not given with the values) | 300,000 compounds, 1.1% hits;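 active means most replicates above 15%; inconclusive means exactly half above 15%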;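 further: 0% = DMSO wells and 100% = Ran loaded with GDP instead of GTP; wells of about 40 µL received 100 nL stock; the first replicate is given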
T cruzi inh: T. cruzi replication inhibition; AID 1885; inhibition, % (concentration not given with the values); 300,000 compounds, 1.4% hits; T. cruzi beta-gal in NIH3T3, luminescence, 90 h;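 active means mean inhibition across valid replicates above about 55%, limit read from the data; inconclusive means mean below that limit but half or more replicates reach it; inactive means mean below it, under half of replicates reach it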;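 further: signal also drops with host cell toxicity which is not excluded here; 0% = plate median of DMSO wells and 100% = zero luminescence signal; higher percent means less beta-gal luminescence so fewer parasites; stock transfer was 50 nL into about 50 µL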
Ecoli rRNA inh OD600: also measured in Ecoli rRNA inh; calls as there; OD600 change, %; measured here: OD600 growth;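 optical density of the mix in the first replicate; 0 = DMSO median and -100 = no signal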
Ecoli rRNA inh RFP: also measured in Ecoli rRNA inh; calls as there; RFP signal change, %; measured here: RFP humanized mutant strains;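 first replicate; 0 = DMSO median and -100 = no signal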
Starred values were filed as active, the others as inactive; ? = inconclusive; nt = not tested or not shown. Some of the compounds tested; count on the stated rates, not on these rows.

SMILES	A1 inh	Beta cell apopt	Calb FLC	Vif A3G	MLL AF4-AF9 inh	Ecoli rRNA inh	Ecoli rRNA inh OD600	Ecoli rRNA inh RFP	RanGTP-Impb inh	T cruzi inh
CC(C)CCOP(=O)(c1ccc(N(C)C)cc1)C(O)c1ccc(Cl)cc1Cl (stereo unspecified)	0.6	8	3	nt	8.5	-24	-42	28	-2.2	20
Cn1cnnc1SCC(=O)Nc1ncc(C(F)(F)F)cc1Cl	0.2	-6	-11	nt	-1.8	7	11	5.3	-4.4	-15
CCn1c(N)[n+](CC(=O)Nc2ccc(SC(F)F)cc2)c2ccccc21	0.6	5	-4	-9%	16	-6	-23	3.6	?	-5
CCNC(=S)NNC(=O)Cn1c(=O)c2c(ncn2CCOC)n(Cc2ccccc2)c1=O	1.0	-3	-12	nt	-2.8	7	5	6.7	?	3
Cc1nn(C)c(Cl)c1/C=C/C(=O)O	-0.3	-2	-1	?	-0.3	7	2	2.3	1.6	0
O=C(/C=N/O)NCCN1CCCCC1	0.7	-4	-18	1%	-36	8	11	8.0	6.5	1
CC(=O)NC(=S)Nc1ccc(NC(=O)COc2ccc(Cl)cc2Cl)cc1	0.4	nt	39	4%	nt	nt	nt	nt	-3.8	30
CC(C)CN1CCC(=O)N(CCO)CC1	0.9	1	2	nt	nt	nt	nt	nt	-3.6	-8
O=c1oc2ccccc2c(Nc2ccccc2O)c1[N+](=O)[O-]	0.3	3	-10	21%	0.2	10	0	-1.7	1.5	-41
CCOc1ccc(N(CC(=O)NC2CC3CCC2C3)S(=O)(=O)c2ccccc2)cc1 (stereo unspecified)	0.5	0	5	nt	-3.0	-11	-14	6.5	?	14
Cc1cccc(OCC(O)Cn2ccnc2C)c1 (stereo unspecified)	-0.1	-3	41	8%	0.5	9	6	1.2	-3.1	-1
Cc1ccc(C)c2[nH]c(=O)c(CN(CCN3CCOCC3)Cc3nnnn3CC3CCCO3)cc12 (stereo unspecified)	-0.2	-1	-1	?	nt	nt	nt	nt	2.3	-11
COc1ccc(-n2nc(C(=O)NCC(=O)N3CCN(c4ccccc4)CC3)c3ccccc3c2=O)c(OC)c1	-0.6	0	79*	nt	-2.6	9	11	-2.9	2.7	-1
FC(F)Sc1ccc(-n2cc(-c3ccccc3)[n+]3c2CCC3)cc1	0.0	20	-26	13%	nt	nt	nt	nt	0.2	-14
Cc1cc(NC(=O)c2ccc(Cl)cc2Cl)n(CCC#N)n1	0.2	0	-11	1%	-1.4	7	15	-6.4	0.0	-5
O=C(c1cccc(NS(=O)(=O)c2ccc(F)c(F)c2)c1)N1CCN(Cc2ccccc2)CC1	0.4	9	7	6%	nt	nt	nt	nt	5.7	2
CSc1ccccc1NC(=O)Nc1cccc(F)c1	-7.3	3	-1	-1%	-0.2	1	-2	0.4	-3.6	3
CC(=O)c1cccc(NC(=O)CN(C)S(=O)(=O)c2ccc3c(c2)CC(C)N3C(C)=O)c1 (stereo unspecified)	-0.4	6	-3	nt	-1.4	-1	3	0.8	-0.8	-2
Cc1ccc(CN(c2ccc(C(=O)NCC3CCCO3)cc2)S(C)(=O)=O)cc1 (stereo unspecified)	0.8	-2	-4	-7%	-0.7	-3	-7	-5.4	2.6	4
COC(=O)c1ccc(NC(=O)CCN2CCOCC2)cc1	0.7	2	-3	1%	-0.8	19	19	2.1	0.5	-11
COc1ccccc1-c1nc(SCC(=O)N2CCOCC2)n[nH]1	0.3	1	-4	nt	-11	7	19	-3.3	1.6	-13
CCC1Nc2ncnc(N3CCCCC3)c2N(Cc2ccccc2)C1=O (stereo unspecified)	0.6	-5	1	nt	-1.5	7	3	9.3	-0.1	-4
CC(=O)Oc1ccc(-c2csc(Nc3ccc(S(N)(=O)=O)cc3)n2)cc1	0.2	8	30	nt	-2.5	-30	-36	-4.8	2.6	-14
COc1ccc(OC)c(C2CC(c3ccccc3)=NN2C(=S)Nc2ccccc2)c1 (stereo unspecified)	1.1	9	3	-17%	7.5	8	11	0.6	3.8	3
Cc1nc2ccccc2nc1CSc1nncs1	0.1	nt	10	-5%	nt	nt	nt	nt	-5.8	-9
O=C(CN1CCCC1)Nc1ccc(NC(=O)Nc2ccccc2)cc1	0.4	-4	2	-3%	nt	nt	nt	nt	1.0	-4
O=C(CSc1ncn[nH]1)N1CCN(c2nnc(-c3ccccc3)c3ccccc23)CC1	0.0	-3	-1	-5%	nt	nt	nt	nt	-10	-7
COc1ccc(C2C(C(=O)OCC(=O)Nc3ccc(C)cc3)CCC(=O)N2c2ccc(OC)cc2)cc1 (stereo unspecified)	-0.2	-2	-16	7%	nt	nt	nt	nt	-5.4	8
O=C(COc1ccc(Cl)cc1)N1CCN(S(=O)(=O)c2ccc(Cl)cc2)CC1	0.8	-10	-4	51µM*	nt	nt	nt	nt	-2.2	13
O=C(Cc1c(F)cccc1Cl)NCCc1c[nH]c2ccccc12	0.4	3	0	nt	-0.5	-9	-7	1.4	-0.6	17
COc1ccc(N2CCN(C(=O)C3CCN(C(=O)c4ccc([N+](=O)[O-])cc4)CC3)CC2)cc1	?	3	15	nt	1.5	7	10	3.1	-4.6	3
O=c1[nH]cnc2c1sc(=S)n2-c1ccccc1	-0.5	2	-2	0%	nt	nt	nt	nt	5.0	-9
Cc1cccc(NC(=O)CSCc2cc(=O)n3ccsc3n2)c1C	1.1	-6	0	nt	nt	nt	nt	nt	2.5	5
Oc1c(C(c2ccccc2Cl)N2CCCC2)ccc2cccnc12 (stereo unspecified)	0.4	92*	105*	nt	91*	-46	-75	-14	1.2	84*
COc1cc(NC(=O)CCC(=O)Nc2ccc3nc(N4CCOCC4)cc(C)c3c2)cc(OC)c1OC	0.0	0	-3	nt	-0.9	25	12	8.5	-3.1	-3
CCC(Sc1nc2ccccc2c(=O)[nH]1)C(=O)O (stereo unspecified)	0.0	-13	-1	17%	nt	nt	nt	nt	1.8	-9
CCN1CCN(c2ccc(NC(=O)Cc3ccccc3)cc2)CC1	0.6	1	-2	>100µM*	nt	nt	nt	nt	?	-7
COc1ccc(NS(=O)(=O)c2ccc3c(c2)NC(=O)CCS3)cc1Cl	-0.1	8	14	7%	2.4	-31	-28	-4.1	-0.4	-20
CCc1ccc2c(c1)cc(CN(C(=S)Nc1cccc(C)c1)C1CC1)c1nnnn12	0.7	0	4	10%	1.4	2	9	9.3	1.7	26
COc1ccc(NC(=O)CC2C(=O)N(Cc3cccs3)C(=S)N2C(C)C)cc1 (stereo unspecified)	-0.2	-3	-10	-4%	-7.0	-17	-4	18	-4.8	-8
COc1ccc(CN2CC(=O)N(c3ccc(C)c(C)c3)C2=S)cc1OC	-0.1	-4	-2	nt	-0.8	0	2	-2.5	-2.9	-2
COc1ccc(C(=O)C2CCCN(Cc3cccn3-c3ccccn3)C2)cc1F (stereo unspecified)	0.2	nt	35	nt	5.1	-2	0	-1.5	-0.6	13
O=C(C1CC1)N1N=C2CCCCC2C1(O)C(F)(F)F (stereo unspecified)	0.2	-1	-3	-5%	-0.8	13	5	-5.2	-12	-1
CCCCCCn1cc(C(=O)O)c(=O)c2ccccc21	0.7	0	4	-1%	nt	nt	nt	nt	-5.1	-2
CCOC(=O)N1CCN(C(=O)CNC(=O)c2ccc(Br)o2)CC1	0.3	1	8	nt	-12	-1	5	-2.6	1.3	0
OCCCCC#Cc1c(-c2ccsc2)sc2ccccc12	0.7	-3	6	nt	0.8	-16	-35	-5.2	5.2	13
COc1ccc(C(=O)NCCN2CCN(C(=O)c3ccc(OC)cc3)CC2)cc1	-0.7	-5	-2	nt	-2.9	-1	-1	-1.9	0.8	-9
COc1ccc(-n2c(SCC(=O)N3CCOCC3)nc(O)cc2=O)cc1	0.3	-3	-51	nt	-0.1	9	10	2.0	-1.5	-11
CC(OC(=O)COc1ccccc1)C(=O)NC1CCCC1 (stereo unspecified)	-0.1	-3	nt	0%	-3.9	-18*	-0.3*	4.0*	nt	nt
COc1ccc(-c2nnc(SCC(=O)Nc3nc4ccccc4s3)n2C)cc1	nt	nt	-8	7%	nt	nt	nt	nt	3.6	-2
COc1ccc(NC(=O)Nc2cccc(NC(C)=O)c2)c(OC)c1	0.2	-4	-24	19%	-0.8	18	7	3.1	3.5	-10
CC(NS(=O)(=O)c1ccc(F)cc1)C(=O)Nc1ccc2c(c1)OCCO2 (stereo unspecified)	-0.2	-2	3	nt	-1.2	-1	-1	2.0	?	-11
CCC(C)OC(=O)C1=C(C)OC23OC(N)=C(C#N)C12C(=O)c1ccccc13 (stereo unspecified)	0.2	8	?	14%	nt	nt	nt	nt	-0.6	-9
Cn1c(N)c(C(=O)COC(=O)Cc2cccs2)c(=O)n(C)c1=O	0.0	-7	nt	-1%	-1.4	2	1	1.3	nt	nt
Cc1nc(SCC(=O)Nc2c(C)nn(C)c2C)c2cnn(-c3ccccc3)c2n1	-1.1	13	20	-1%	nt	nt	nt	nt	0.0	0
O=C(CCC(=O)N1CCOc2ccccc21)NCCc1ccccc1	-1.0	-2	-4	nt	-0.9	0	10	-0.2	-5.8	-7
COc1c(S(=O)(=O)NCCCN2CCOCC2)ccc(Cl)c1Cl	0.4	1	2	18%	2.1	0	-4	-0.5	0.3	12
CCOC(=O)c1sc(N/N=C/c2cc(Br)c(O)c(OC)c2)nc1C	-0.5	7	29	nt	6.1	-16	-17	8.4	27*	11
O=C(O)CCCNC(=O)c1nn(Cc2ccccc2)c(=O)c2ccccc12	-0.3	-4	9	-1%	-3.7	3	8	-2.1	0.8	-11
Nn1cnc2scc(-c3ccc(Cl)cc3)c2c1=O	-0.8	-4	-37	nt	6.4	5	-1	-2.4	-2.2	-15
Further records.
SMILES	A1 inh	Beta cell apopt	Calb FLC	Vif A3G	MLL AF4-AF9 inh	Ecoli rRNA inh	Ecoli rRNA inh OD600	Ecoli rRNA inh RFP	RanGTP-Impb inh	T cruzi inh
Cc1cc(N2C(=O)c3ccc(C(=O)Nc4ccccc4O)cc3C2=O)no1	1.8	-15	1	nt	-1.5	nt	nt	nt	2.1	-3
CC(CNC(=O)c1cncc(O)c1)NC(=O)c1cncc(O)c1 (stereo unspecified)	-0.2	4	-2	?	nt	nt	nt	nt	-2.5	-3
CCOc1ccc(NC(=O)COc2ccccc2)c([N+](=O)[O-])c1	-5.3	-4	2	nt	4.3	nt	nt	nt	0.2	6
COc1ccc(C(=O)NC(=S)Nc2ccc(CN3CCOCC3)cc2)cc1	-0.1	-4	3	5%	4.1	-3	0	0.0	1.6	-22
O=C(O)c1cc(N/N=C/c2c(O)ccc3ccccc23)ccc1Cl	-2.8	-10	10	nt	1.1	-14	-9	3.3	5.1	-11

Screening data deposited in PubChem by several laboratories.
